# Source: PubChem BioAssay
# Ab BasE inh = blocks the Acinetobacter baumannii siderophore enzyme BasE; purified BasE, fluorescence polarization binding displacement; inhibition, % (test concentration not listed); hit rate 0.1% among 84,000; AID 485350;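 active = both replicates above 25% with normal brightness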;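 note: 0% = negative plate control signal and 100% = positive plate control signal; stock transfer was 100 nL into about 30 µL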
# KSHV LANA nucl = LANA-nucleosome interaction inhibition; z-score (no concentration beside the values); hit rate 0.3% among 51,000; FITC-LANA1-23 / chicken nucleosome fluorescence polarization; stronger effect = lower value; AID 720717;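 active = both repeat wells score below -2 in polarization z-score versus plate sample wells, excluding overly bright wells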;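 note: 100 nL library stock added to about 30 µL; numbers are from one replicate; some results filed as inactive read as strong as hits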
#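 Test system: purified chicken nucleosomes with FITC-labelled LANA N-terminal peptide (1-23); Input: 240 nM purified chicken nucleosomes (480 nM peptide binding sites), final; Medium: TEN-BT buffer, pH 7.5; Timing: 10–45 min, room temperature; Technique: fluorescence polarization, 480 nm excitation, 535 nm parallel and perpendicular emission; Replication: duplicates.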
# * = called active by the depositor; · = no result given; & = joins results of further samples.
SMILES,Ab BasE inh,KSHV LANA nucl
COC(=O)C1=C(C)NC(C)=C(C(=O)O[C@@H]2CCCN(Cc3ccccc3)C2)[C@@H]1c1cccc([N+](=O)[O-])c1,·,-0.15
CCC(C)N(C(=O)c1c(F)c(F)c(F)c(F)c1F)C(C)CC (stereo not given),3.3,-0.29
CC(/C=C/c1c[nH]c2ccccc12)=C\C(=O)O,0.2,0.85
CCN(C(=O)C1CCC(C(=O)N(CC)c2ccccc2)CC1)c1ccccc1 (stereo not given),1.5,-1.7
O=C(Nc1ccc(-c2cnco2)cc1)c1ccc(F)cc1F,1.6,·
Cc1cccc(N(C)Cc2cc(=O)n3oc(C)cc3n2)c1,3.3,0.42
COc1ccc(CN(C(=O)/C=C\C(=O)O)C2CC(=O)N(c3ccccc3)C2=O)cc1 (stereo not given),1.1,0.34
COc1ccc(NC(=O)c2ccn[nH]2)cc1,-2.0,·
O=C(CCn1c(=O)c2cccn2c2cccnc21)N1CCCCCC1,-1.7,0.45
CN(C)c1ccc(-c2nc3ccc(C(=O)O)cc3s2)cc1,11,-0.61
Cc1c(C(=S)NC(=O)C2CC2)c(=O)n(-c2ccccc2)n1C,-23,·
CCn1c(O)c(C(C)=Nc2ccccc2C(=O)NC2CC2)c(=O)n(CC)c1=S,-1.1,·
Cc1occc1-c1nnc2sc(-c3cccc(F)c3)nn12,-0.4,-0.35
Cc1nn(CC(=O)N2CCCC2)c(=O)c2cc3ccccc3n12,-1.9,0.012
C=CCOc1ccc(CNn2cn[nH]c2=S)cc1,0.5,0.044
Brc1cccc(-c2cn3ccsc3n2)c1,-2.4,3.3
S=c1[nH]nc(-c2ccncc2)n1-c1ccc2c(c1)OCCO2,3.7,0.32
Cc1cc(NC(=O)COCc2cc(-c3ccco3)on2)no1,-1.9,0.022
O=C1NC(=Nc2ccc(F)cc2)S/C1=C/c1ccc(N2CCCCCC2)o1,-29,·
Cc1oc(S(=O)(=O)N2CCCC2)cc1C(=O)Nc1ccccc1,-0.4,·
Cc1cc(C)c(N=C(N)NN)cc1C,0.6,·
CCn1c(=O)c2cc(C(=O)N(Cc3ccco3)C3CCCCC3)sc2c2ccccc21,-0.5,0.75
O=C(c1ccccc1)C(C(=O)N1CCCCC1)n1ccccc1=O (stereo not given),1.7,-0.18
O=C1CCCN1C(=O)CSc1nc2sc3c(c2c(=O)n1Cc1ccco1)CCCC3,-16,·
CC(C)c1ccc2[nH]c(O)c(N=NC(=O)c3nn(C)c(=O)c4ccccc34)c2c1,3.0,·
Cc1cccc(N=c2scc(-c3cc4ccccc4o3)n2C2CC2)c1,2.1,·
COc1ccc(C(=O)N2CCn3cccc3C2c2ccccc2)cc1OC (stereo not given),-2.8,-0.039
Cn1nccc1NC(=O)c1ccc(Cl)c(Cl)c1,-6.1,-0.13
CCCC(=O)N(c1ccccc1)C1CC(C)Nc2ccccc21 (stereo not given),0.3,-0.037
CCc1nnc2sc(-c3cccs3)nn12,0.3,0.13
Cn1nc2c3c(cccc3c1=O)-c1ccccc1-2,0.5,0.57
O=c1c(-c2ccccc2)c(O)cc(-c2ccc(F)cc2)n1-c1ccccc1,1.6,·
CCCN(C(=O)c1cccs1)c1nc(-c2ccccc2)cs1,0.3,-0.077
COc1ccccc1C(OC(=O)c1ccco1)C(=O)NCC1CCCO1 (stereo not given),1.8,-1.3
O=c1c2ccccc2nc(-c2ccccc2)n1C1CCS(=O)(=O)C1 (stereo not given),-0.8,-0.0075
C=CCNc1nc(C(=O)OCc2cccc(S(=O)(=O)N(C)C)c2)cs1,-1.2,·
Cc1occc1-c1nnc(SCC(=O)NCC(=O)Nc2ccc(F)cc2)n1Cc1ccccc1,-1.7,·
Cc1ccc(-n2nc3c(N4CCC(C(=O)N5CCCC5)CC4)nnc(C)c3c2C)cc1,-5.2,·
O=C1c2cccnc2C(=O)N1Cc1ccc(S(=O)(=O)N2CCOc3ccccc3C2)cc1,-2.5,2.3
O=C(NC(=S)N1CCN(C(=O)c2ccco2)CC1)c1ccc(S(=O)(=O)N2CCOCC2)cc1,0.7,·
CC(C(=O)OCC(=O)N1CCCC1)N1C(=O)c2ccccc2C1=O (stereo not given),1.5,·
CC(OC(=O)c1cccc(N(C)C)c1)C(=O)c1ccc(Cl)cc1 (stereo not given),0.6,·
Cc1ccc(S(=O)(=O)N2CCNCC2)cc1,3.1,-0.52
COc1ccc(OC2CCN(S(=O)(=O)c3ccccc3)CC2)cc1,2.3,0.42
Cc1ccc(S(=O)(=O)NC2CCSC2=O)cc1 (stereo not given),-0.3,-0.14
CCOc1cc(-c2cc(C)c3c(ccc4ccccc43)n2)ccc1O,1.9,·
COc1ccc(-n2cc(C(=O)NC3CCCCCCC3)nn2)cc1,0.7,0.64
COc1cccc(/C=C2/CCC/C(=C\c3cccc(OC)c3OC)C2=O)c1OC,0.8,·
O=C(CN1CCN(Cc2ccccc2)CC1)N1CCCCCC1,-1.4,0.94
CCCCCCCC/C=C\CCCCCCCCOC[C@H](COP(=O)([O-])OCC[N+](C)(C)C)OC(C)=O,-2.0,-0.48
Nc1cccc(OCc2ccccc2F)c1,0.0,0.15
CNC(=O)Nc1nncnc1C(=O)O,-0.2,0.17
N=C1/C(=C/c2ccc(OCCOc3ccccc3)c(Cl)c2)C(=O)N=C2SC=CN12,0.2,·
S=c1nccc(-c2ccc3c(c2)CCO3)[nH]1,1.2,·
O=S(=O)(Cc1cccc(Cl)c1)c1nc(C(F)(F)F)cc(C(F)(F)F)n1,-0.3,·
N#CC(C#N)=Cc1c(-c2ccccc2)nc2ccccn12,-1.0,·
S=C(c1ccc(Cl)cc1)N1CCCCC1,-0.8,·
COC(=O)COc1cc(NO)ccc1N=O,4.4,·
Cc1cc(COC(=O)c2ccc(OCc3ccccc3)cc2)no1,1.2,·
CC(Sc1nncn1-c1ccccc1)C(N)=O (stereo not given),2.3,·
# (next part)
SMILES,Ab BasE inh,KSHV LANA nucl
OC1CCN(C(=S)Nc2ccccc2)CC1,0.5,0.27
Cc1cc(NC(=O)CSCC(=O)O)n(C)n1,-2.1,-0.09
Cc1ccc2onc(CNC(=O)N3CCCCCC3)c2c1,-0.2,-0.21
C=CCn1c(C)cc(C(=O)COC(=O)c2ccc3c(c2)NC(=O)CS3)c1C,-5.8,·
Cc1ccc(S(=O)(=O)N2CCN(CC(=O)N3CCCC3)CC2)c(C)c1,0.9,·
C=CCC1N(c2ccccc2)C(=O)C2C(C(=O)O)C3C=CC21O3 (stereo not given),-1.4,-0.62
O=C(O)c1cccc2cccc(S(=O)c3ccccc3)c12 (stereo not given),-0.4,0.36
Cc1noc2nc(-c3cccnc3)cc(C(F)(F)F)c12,3.5,·
O=C(C1=NOC2(C(=O)c3ccccc3C2=O)C1c1ccccc1)c1ccccc1 (stereo not given),3.4,·
CCn1c(=O)/c(=C\c2ccc(Cl)cc2)s/c1=C(/C#N)c1nc2ccccc2n1C,-0.4,·
O=C(O)c1ccc(-n2[nH]c(=S)sc2=S)cc1,0.5,·
Cc1cccc(NC(=O)CCn2c(=O)oc3ccccc32)c1,1.8,0.14
CCOc1ccc(C(=O)Nc2c(C)nc3nc[nH]n3c2=O)cc1OCC,0.9,-0.88
CCC(C)C(NC(=O)c1ccccc1NC(=O)c1ccc(OC)cc1)C(=O)N1CCOCC1 (stereo not given),2.8,·
O=C(c1ccc2c(=O)n3c(nc2c1)CCCCC3)N1CCCCC1,-2.4,-0.58
Cc1ccc(NNC(=O)c2cccnc2Oc2ccccc2)cc1,3.0,-0.11
CC(Sc1nc2ccccc2[nH]1)c1nc2ccccc2c(=O)[nH]1 (stereo not given),-2.2,1.1
CC(C)N(Cc1nc(-c2ccccc2)no1)C(=O)c1ccc2c(c1)OCO2,1.4,0.3
O=C(NCCc1cccs1)N1CCN(C2c3ccccc3-c3ccccc32)CC1,2.2,·
O=C(O)CNC(=O)/C=C\c1ccccc1,-1.6,-0.22
O=C(CCC1COc2ccccc2O1)Nc1ccc(C(=O)N2CCCC2)cc1 (stereo not given),-1.6,0.38
O=C(Nc1ccc(OCc2ccccc2)cc1)Nc1cc(C(F)(F)F)ccc1N1CCCC1,·,-0.3
O=C(c1csc2ccccc12)N1CC=C(c2ccccc2)CC1,·,0.43
OCCN1CCN(c2nc(-c3ccccc3)c3cc(Cl)ccc3n2)CC1,0.1,-1.3
Cc1ccc(Cn2ccsc2=NC(=O)COC(=O)c2ccc(-n3cnnn3)cc2)cc1,3.3,·
CCOc1ncccc1C(=O)N1CCN(S(=O)(=O)c2ccc(Br)cc2Cl)CC1,-2.2,·
C=CCn1c(COc2ccc(CC)cc2)nnc1SCC(=O)/C(C#N)=C(\C)N,-1.9,·
CCOC(=O)c1c(C)n(C)c2ccc(OCC(N)=O)cc12,-0.4,-0.53
Cc1cc(C)nc(SCc2nnc(SCC(=O)Nc3ccc(S(N)(=O)=O)cc3)n2C)n1,0.6,0.45
CC(=O)Nc1ccc(/C=N/N2C(C)CCCC2C)cc1 (stereo not given),-2.8,·
CC(C)=CC(=O)Nc1ccccc1C(N)=O,0.1,0.55
CNC(=O)COC(=O)C1(c2ccc(Cl)cc2)CCC1,-0.7,·
Cc1nc2cccnc2n1-c1ccc(CC(=O)NCc2cccs2)cc1,-2.4,0.05
COc1ccccc1NC(=O)C#Cc1ccccc1,0.9,0.23
CC(Sc1nnc2n1CCCCC2)C(=O)NCc1ccc2c(c1)OCO2 (stereo not given),-0.9,·
Cc1ccc(O)c(C(=O)c2cnn(-c3nc(C)cc(=O)[nH]3)c2)c1,0.8,·
CC(C)(C)c1ccc(C(=O)N2CCCc3ccccc32)cc1,1.4,·
COc1ccc(N=C(N)/C(C#N)=C/c2[nH]c3ccccc3c2O)cc1,-64,·
S=C(NCCc1c[nH]c2ccccc12)NCCN1CCOCC1,0.4,·
CCOC(=O)CC(=N)N,0.6,-0.54
O=C(COc1ccccc1O)NO,7.4,0.33
O=C1CCCN1S(=O)(=O)c1ccccc1,-2.7,0.086
CCOC(=O)c1[nH]c(C)c(/C(O)=C2\C(=O)C(=O)N(CCN3CCOCC3)C2c2ccco2)c1C (stereo not given),0.5,0.78
Cc1cccc(N(CC(=O)O)CC(=O)O)c1,0.3,·
CCn1c(C)cc2c(c1=O)C(c1cccc(OC)c1)C(C(=O)OC)=C(N)O2 (stereo not given),1.6,2.6
CCn1c2ccccc2c2cc(N=Cc3cc(C)n(-c4cccc(S(=O)(=O)N5CCOCC5)c4)c3C)ccc21,-1.4,·
CC(C)CC(c1nnnn1C1CCCC1)N1CCC(C(N)=O)CC1 (stereo not given),1.2,-0.71
CN1C2CCC1CC(NC(=O)Nc1ccc(Br)cc1)C2 (stereo not given),·,0.56
CC1=NN(c2ccccc2)C(=O)C(C=C2C(=O)N(C)C(=S)N(C)C2=O)C1 (stereo not given),1.9,·
C#CCOC(=O)c1ccc(CSc2ccc(Cl)cc2)o1,-2.2,1.8
O=c1oc2ccccc2o1,21,·
CC1=C(C(=O)Nc2ccccc2C(=O)NC(C)(C)C)SCCO1,-1.6,0.74
Cc1cc(OC(=O)c2ccccc2Cl)n(CCC#N)n1,-0.2,·
COC(=O)c1c(Cn2cc(Br)ccc2=O)nc2ccccc2c1C,4.8,·
COc1ccc(C=Nc2cccc(Cl)c2)cc1,0.5,·
c1ccc2sc(NN=C3CCCC3)nc2c1,0.5,0.061
CC(=O)Nc1ccc(S(=O)(=O)N2CCN(C(=O)c3ncoc3-c3ccccc3)CC2)cc1,1.2,0.31
Cc1ccc(S(=O)(=O)NC(=O)c2cc(C)n(-c3ccccc3)c2C)cc1,1.3,·
Cc1ccccc1Nc1nc(N)nc(COc2ncnc3sccc23)n1,-0.5,·
CCOCCc1nnc(NS(=O)(=O)c2ccc(OC)cc2)s1,-1.1,2.2

# 4 entries from above, as tab-separated lines.
molecule	Ab BasE inh	KSHV LANA nucl
Cc1cc(OC(=O)c2ccccc2Cl)n(CCC#N)n1	-0.2	·
CC1=NN(c2ccccc2)C(=O)C(C=C2C(=O)N(C)C(=S)N(C)C2=O)C1 (stereo not given)	1.9	·
c1ccc2sc(NN=C3CCCC3)nc2c1	0.5	0.061
CC1=C(C(=O)Nc2ccccc2C(=O)NC(C)(C)C)SCCO1	-1.6	0.74

# The listing picks up with the 7 entries that preceded the break.
SMILES,Ab BasE inh,KSHV LANA nucl
COC(=O)c1c(Cn2cc(Br)ccc2=O)nc2ccccc2c1C,4.8,·
COc1ccc(C=Nc2cccc(Cl)c2)cc1,0.5,·
c1ccc2sc(NN=C3CCCC3)nc2c1,0.5,0.061
CC(=O)Nc1ccc(S(=O)(=O)N2CCN(C(=O)c3ncoc3-c3ccccc3)CC2)cc1,1.2,0.31
Cc1ccc(S(=O)(=O)NC(=O)c2cc(C)n(-c3ccccc3)c2C)cc1,1.3,·
Cc1ccccc1Nc1nc(N)nc(COc2ncnc3sccc23)n1,-0.5,·
CCOCCc1nnc(NS(=O)(=O)c2ccc(OC)cc2)s1,-1.1,2.2
NC(=O)COc1ccccc1O,3.9,0.34
CC(=O)N1N=C(c2cccs2)CC1c1cccs1 (stereo not given),-0.2,·
Cc1noc(C)c1C(=O)O/N=C(\N)c1ccc(-c2csnn2)cc1,-0.1,-0.38
CC1CCN(C(=O)Nc2cccc(Cl)c2Cl)CC1,2.5,-0.56
CCN(CCCc1ccccc1)CCCc1ccccc1,0.3&-2.6,0.099&-0.13&1.3

# The list is partial. The share of hits here may be higher or lower than overall.
